From PubChem
HNF4A DNA FP: change in binding of human HNF4A to DNA, primary screen, biochemical, fluorescence polarization, FITC-DNA; Hepatocyte nuclear factor 4-alpha (Homo sapiens), P41235; 1 h; activity change, % at 10 µM; 360,000 tested, 0.3% active; AID 1224865, 2016; in the data active = activity change above about 30%, passing the limit was not always enough;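 note: controls were the assay level and a saturating level of protein; the project sought stronger binding though the title names inhibitors; some compounds called inactive have numbers as strong as hits; positive values seem to mean higher polarization but the record does not say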
LANA-H2B inh: blockers of LANA interaction with H2A/H2B – biochemical, FP readout, HTS, primary screen | Protein LANA1 (Human herpesvirus 8 type P (isolate GK18)), Q9QR71 | cell-free LANA-H2A/H2B peptide, fluorescence polarization | inhibition, % (no concentration beside the values) | 320,000 tested, 0.6% active | AID 2629, 2010; in the data active = inhibition mostly above about 10%, no sharp cut-off; inactive = mostly below about 6.7%;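 note: stock transfer was 7.5 nL into about 10 µL; 0% = median of vehicle wells and 100% = median of positive control wells; one replicate is shown; the record names a cut of 25% in any replicate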
Ecoli growth: E. coli growth inhibition, primary screen, OD600; 330,000 tested, 0.21% active; Escherichia coli growth, 23 h; stronger effect = lower value; OD600 absorbance (test concentration not listed);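 active = OD600 absorbance below the run mean of sample wells minus 3.6 SD, in any replicate, cut at about 0.56 in these data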;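 note: stock transfer was 300 nL into about 60 µL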
Bfl-1 A1 inh: caspase 3/7 activation in MEF A1-2A-BIM cells, primary screen, A1 inhibitor project, cell-based, luminescence, HTS | AID 2462, 2010 | 330,000 tested, 0.066% active | caspase activation, % (test concentration not listed) | Caspase-Glo 3/7 luminescence, 3 h; percent of clofoctol response, vehicle zero;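 active = over half of replicate activation scores above 10%, or exactly half above 10 with the replicate mean above 10; inconclusive = replicate mean below 10 yet half the replicates above 10; inactive = over half of replicates below 10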;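 note: wells of about 30 µL received 50 nL stock; many hits fall short of the cut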
B2AR ag: beta2AR agonists driving receptor internalization, primary screen, cell-based, FAP fluorogen, flow cytometry. Beta-2 adrenergic receptor (Homo sapiens), P07550. Am2.2-beta2AR cells; reference of the scale not given here. response, % (test concentration not listed). 340,000 tested, 0.43% active;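 active = response above a set limit, near 3 SD of response in nonfluorescent compounds, cut at about 42% in these data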;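 note: stock transfer was 100 nL into about 11 µL; a reference agonist was the positive control; negative values mostly stem from fluorescent compounds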
Target sequence (P07550 whole entry, looked up): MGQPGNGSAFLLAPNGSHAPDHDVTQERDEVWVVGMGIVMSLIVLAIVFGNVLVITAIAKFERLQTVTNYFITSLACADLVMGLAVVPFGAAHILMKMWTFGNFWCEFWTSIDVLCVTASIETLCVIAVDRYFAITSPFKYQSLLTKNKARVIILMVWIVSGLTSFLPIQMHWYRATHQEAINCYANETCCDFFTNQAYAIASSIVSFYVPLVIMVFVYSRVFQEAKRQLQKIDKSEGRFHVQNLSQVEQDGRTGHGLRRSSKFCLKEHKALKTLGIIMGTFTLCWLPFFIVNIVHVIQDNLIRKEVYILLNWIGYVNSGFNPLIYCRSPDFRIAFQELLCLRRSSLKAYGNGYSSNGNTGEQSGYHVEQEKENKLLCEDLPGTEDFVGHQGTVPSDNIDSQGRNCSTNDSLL
UCH37 DUB inh: inhibitors of human UCH37 deubiquitinase, primary screen, biochemical, Ub-AMC cleavage, fluorescence. purified proteasome/UCH37. inhibition, % (test concentration not listed). 330,000 tested, 0.33% active;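 active = mean of two replicates above 20%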;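 note: 0% = compound-free wells with enzyme and 100% = wells lacking proteasome; stock transfer was 100 nL into about 20 µL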
Target sequence (Q9Y5K5 whole entry, looked up): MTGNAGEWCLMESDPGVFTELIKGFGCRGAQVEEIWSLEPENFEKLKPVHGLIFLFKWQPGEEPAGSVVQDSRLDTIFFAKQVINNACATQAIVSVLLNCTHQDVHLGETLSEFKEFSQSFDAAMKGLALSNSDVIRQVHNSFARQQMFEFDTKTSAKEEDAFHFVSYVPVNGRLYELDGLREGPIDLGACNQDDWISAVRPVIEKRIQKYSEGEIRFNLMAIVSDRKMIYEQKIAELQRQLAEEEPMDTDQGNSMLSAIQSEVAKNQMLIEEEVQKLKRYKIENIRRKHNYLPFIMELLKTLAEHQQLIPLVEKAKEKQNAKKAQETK
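Material: Human UCH37 enzyme supplied as purified proteasome complex | Schedule: 30 min compound-proteasome preincubation then 25 min substrate reaction, room temperature | Detection: AMC fluorescence from Ub-AMC cleavage, excitation 355 nm, emission 460 nm | Benchmarks: Wells without proteasome as full block, compound-free enzyme plus substrate as uninhibited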
Vif A3G: inhibitors of Vif binding to APOBEC3G peptide, primary screen, biochemical, TR-FRET, GST-Vif 1-94, biotin-A3G peptide, dose response retest (AID 1117319); inhibition, %, or IC50 in µM where a hit was titrated; TR-FRET GST-Vif / biotin-A3G peptide binding; higher % means a stronger effect; test concentration not given here; strong numbers were not always called active; 260,000 tested, 0.57% active;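 active = above the screen mean plus three standard deviations and confirmed in dose response; inconclusive = results disagree or hit not tested in dose response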;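 note: Vif residues 1-94 fused to GST binding biotinylated APOBEC3G peptide 110-148; 0% = full assay without inhibitor and 100% = GST in place of GST-Vif; retest series ran down from 100 µM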
Active calls of the source: *; ? = inconclusive; · = not tested or not shown.

SMILES	HNF4A DNA FP	LANA-H2B inh	Ecoli growth	Bfl-1 A1 inh	B2AR ag	UCH37 DUB inh	Vif A3G
CCN(C(=O)COC(=O)c1ccccc1O)c1nc2ccccc2s1	2.4	7.1	0.75	2.2	4.2	-6.7	7.0%
CCc1ccc(C(CNC(=O)c2ccc3c(=O)n(-c4ccccc4F)c(=S)[nH]c3c2)N(C)C)cc1 (stereo unspecified)	-3.6	3.4	0.707	0.0	-18.3	-9.4	-2.8%
CCOC(=O)C1=C(N)n2c(s/c(=C\c3ccco3)c2=O)=C(C(=O)OC(C)C)C1c1ccco1 (stereo unspecified)	3.0	-0.1	·	0.9	64.8*	·	1.23µM*
C(=N\N(Cc1ccccc1)c1ccccc1)/c1cccnc1	-3.0	4.0	·	-0.2	-15.8	·	11.2%
Cc1ccc(-n2sc3ccccc3c2=O)cc1	-3.0	-3.6	0.618	-10.0	2.1	6.4	15.8%
Cc1noc(C)c1COc1ccc(C(=O)N2CCN(c3cccc(Cl)c3)CC2)cc1	-2.4	·	0.63	·	10.3	-1.5	-5.4%
COc1ccccc1N1CCN(C(=O)Cn2nnc(-c3cccs3)n2)CC1	-0.6	-3.9	0.702	0.5	5.3	5.5	31.7%
CCOc1cc(/C=N/N=C2/NC(=O)C(CC(=O)O)S2)ccc1OCc1ccc(Cl)cc1 (stereo unspecified)	-0.6	-2.2	·	1.1	-4.8	·	?
Cc1cccc(CSc2nc3c(c(=O)[nH]2)CCCC3)c1	0.0	·	0.677	0.3	-1.6	0.3	1.1%
COC(=O)c1ccc(CNC(=O)Cn2cnc(C(=O)Nc3ccc(C)c(C)c3)n2)cc1	0.0	·	0.701	·	4.2	0.9	·
O=[N+]([O-])c1ccccc1S(=O)(=O)N(CC(O)CN1CCCCC1)c1ccccc1 (stereo unspecified)	-4.7	-2.2	0.655	0.0	-7.9	-1.5	·
Cc1ccnc(NS(=O)(=O)c2ccc(NC(=O)CCOc3ccccc3)cc2)n1	0.3	-6.0	0.643	-0.5	-22.2	0.0	·
CCOc1ccc(-n2cnnn2)cc1S(=O)(=O)NC1CC1	-1.8	0.9	0.593	1.4	15.0	0.7	3.4%
CC(C(N)=O)N1C(=O)NC2(CCCc3ccccc32)C1=O (stereo unspecified)	-1.6	4.8	0.665	0.3	0.5	1.6	·
O=C(NCN1C(=O)C2C3C=CC(C3)C2C1=O)Nc1cccnc1 (stereo unspecified)	-0.7	7.3	0.712	-1.2	-0.5	1.1	-1.2%
Cc1cccc(NC(=O)c2cc(S(=O)(=O)N3CCCCC3)ccc2Cl)n1	4.5	·	0.65	·	-5.0	0.5	3.6%
COc1ccc(CN2C3CCCC2CC(NC(=O)c2cccc(F)c2)C3)cc1 (stereo unspecified)	-3.2	0.8	0.696	0.5	-6.1	3.2	·
O=C(CCc1nnc2ccc(N3CCC4(CC3)OCCO4)nn12)N1CCCCC1	2.1	-7.8	0.69	0.3	5.6	-1.4	·
CC(=O)Nc1ccc(S(=O)(=O)Nc2nc3ccccc3nc2N2CCc3ccccc3C2)cc1	0.2	-1.0	0.713	-2.0	0.6	-1.5	·
O=C(CC(=O)NN=Cc1ccc2c(c1)CCC2)NN=Cc1ccc2c(c1)CCC2	-0.2	·	·	·	-11.3	·	55.7%
Cc1ccc(C)n1-c1cccc(C(=O)Nc2ccccc2)c1	0.6	0.1	0.635	-0.8	-0.3	5.8	18.2%
CCC(=O)N(Cc1cc2cc(OC)ccc2[nH]c1=O)c1ccc(C)cc1	-4.2	-0.5	0.658	1.3	1.1	-46.7	·
CN(C)S(=O)(=O)c1ccc(N2CCCC2)c(C(=O)NC2(C)CCS(=O)(=O)C2)c1 (stereo unspecified)	-1.9	2.3	0.662	0.1	-3.8	1.4	-1.5%
Brc1ccc2ncnc(Nc3cccc4ccccc34)c2c1	0.5	3.2	0.698	-0.2	-4.6	0.6	-1.6%
Cc1ccc(S(=O)(=O)NCCN2CCOCC2)cc1C	-0.7	-2.8	0.663	1.4	7.3	3.4	9.6%
CCOC(=O)N1CCN(C(=O)CSc2ccc3nnc(-c4ccncc4)n3n2)CC1	-6.1	-3.8	0.72	-0.1	0.5	-1.2	11.5%
COCCSc1ccccc1C(=O)NCc1ccc2c(c1)OCO2	-0.4	0.5	0.677	-0.1	2.9	1.3	0.5%
COCCNC(=O)Cc1c(C)c2c(cc(C)c3c(C)coc32)oc1=O	-5.3	2.9	0.657	1.0	3.3	-390.4	-0.9%
CC(=O)Nc1cccc2c1Cc1ccccc1-2	-3.9	0.0	0.655	-1.7	-7.5	2.6	-6.0%
CN(Cc1ccc(C#CCCO)cc1)CC1CCCN(CCc2ccc(Cl)cc2)C1 (stereo unspecified)	-2.3	-0.7	0.644	0.7	2.8	4.4	·
CC(=O)c1cccc(NC(=O)Nc2ccc3c(c2)OCO3)c1	3.0	2.8	0.651	-5.2	0.3	4.3	·
COc1cccc(C(=O)N/N=C(/c2ccccc2)c2ccccn2)c1	-1.6	-7.6	·	0.8	12.0	·	6.2%
CCOc1ccc(N(Cc2ccc(C(=O)O)cc2)S(=O)(=O)c2ccc(C)cc2)cc1	-1.0	2.1	0.666	-0.4	2.3	2.4	-7.7%
COC(=O)CCC(=O)OC1(C)C(=O)C=C2C=C(C3CC3)N(CCCOC(C)C)C=C2C1=O (stereo unspecified)	-4.7	-3.4	0.696	0.2	-0.7	3.7	20.5%
O=C(N/N=C/c1cccnc1)c1cc2ccccc2cc1O	-0.5	-3.1	·	-0.2	4.9	·	5.8%
COc1ccc(Nc2ccccc2)c(C)c1	0.1	-1.6	0.734	0.4	4.7	1.4	7.4%
COc1ccc2[nH]c3c(=O)n(Cc4ccc(C(=O)N5CCCC5)cc4)c(=S)[nH]c3c2c1	-3.2	2.2	0.656	-2.8	6.1	-11.9	·
NC(=O)CC(NC(=O)Cc1ccc(Br)cc1)c1ccc(N2CCN(c3ccccn3)CC2)c([N+](=O)[O-])c1 (stereo unspecified)	0.6	-0.9	0.584	-0.2	63.3*	-3.1	·
O=C(O)C1CCCCC1C(=O)NCCc1ccncc1 (stereo unspecified)	-1.4	8.2	0.78	-0.8	-3.4	1.0	?
O=c1[nH]c2cc([N+](=O)[O-])c(NCCO)c([N+](=O)[O-])c2[nH]1	-1.6	-1.0	0.654	-0.1	12.5	12.9	-0.5%
O=C(CSc1nnnn1-c1ccccc1)Nc1ccc(Cl)cn1	-0.7	-1.3	0.694	-0.1	6.3	-1.4	-8.1%
COc1ccc(CC2(C)OC(c3ccc(Cl)cc3)=NN2C(C)=O)cc1 (stereo unspecified)	-0.9	-0.2	0.694	0.5	1.2	-19.0	22.2%
CCOC(=O)N1CCN(c2cc(C)c([N+](=O)[O-])cc2F)CC1	1.7	-9.8	0.65	0.2	10.9	7.5	2.6%
COc1cccc(CN(C)C(=O)CCNC(=O)c2ccc(Br)cc2)c1	0.9	-2.3	0.649	0.9	-1.3	0.7	·
CCn1c(N2CCN(C(=O)NC3CCCCC3)CC2)nc2ccccc21	-2.5	-2.4	0.708	1.0	2.4	2.0	3.1%
Cc1cccc(Cc2c(C)nc3c(C(=O)NCc4ccco4)cnn3c2C)c1	-1.8	0.5	0.657	0.1	24.4	-63.3	7.1%
O=C(c1cccc(S(=O)(=O)N2CCc3ccccc32)c1)N1CCCC(C(F)(F)F)C1 (stereo unspecified)	-3.2	2.6	0.674	-0.4	-9.8	1.0	-7.2%
Cc1ccc(NC(=O)COC(=O)Cc2csc(-c3ccc(Cl)cc3)n2)cc1C	-0.9	1.0	0.634	0.1	-1.6	1.5	·
Cc1cc(C(=O)OCC(=O)Nc2ccccc2Cl)c(C)o1	2.1	-1.7	0.653	-3.4	10.1	1.6	0.2%
Cc1[nH]nc2c1/C(=N/O)CC(c1ccccc1)C2 (stereo unspecified)	3.0	-5.7	·	-0.1	3.9	·	?
CCOC(=O)c1nnn(-c2nonc2N)c1COc1ccccc1	-1.4	2.3	0.726	-0.3	5.5	3.1	12.2%
COc1cc(C(=O)Nc2ccc(Cl)c([N+](=O)[O-])c2)cc(OC)c1OC	2.2	-3.3	0.718	0.3	4.8	2.3	32.4%
C/C(CC(=O)Nc1ccc2c(c1)OCCO2)=N\NC(=O)COc1cccc(C)c1	-1.9	9.0	·	-0.2	6.7	·	-8.5%
Cc1ccc(C(CC(=O)NCCCN(C)C)c2ccc(OC(C)C)cc2)cc1 (stereo unspecified)	-0.4	-4.7	0.664	0.0	-14.0	4.4	?
CC(C(=O)Nc1ccccc1C(=O)N1CCOCC1)N(c1ccc(Cl)cc1)S(C)(=O)=O (stereo unspecified)	-6.1	-3.4	0.652	0.3	1.8	5.9	0.8%
COc1ccc(-c2cc3cc(OC)c(OC)cc3c(C)n2)cc1	-1.3	-11.4	0.682	0.1	13.6	-51.5	9.6%
CCNc1nnc(SCC(=O)N2c3ccccc3NC(=O)CC2C)s1 (stereo unspecified)	2.6	-1.9	0.684	-0.3	-3.5	-2.8	1.9%
O=C([C@@H]1CCCN1C(=O)c1cccs1)N1CCN(S(=O)(=O)c2cccc(F)c2)CC1	-2.5	10.6*	0.625	-0.2	-0.2	-0.3	4.0%
CC1(C)N=C(N)N=C(N)N1c1ccc(OCCCOc2ccccc2)c(Cl)c1	49.9*	-2.4	0.678	-0.1	-2.5	0.3	14.6%
CCN(CC)C(=O)CSc1nnc(-n2nc(C)cc2C)c2ccccc12	2.0	9.3	0.714	0.0	7.7	1.8	-1.8%

Further results follow:
SMILES	HNF4A DNA FP	LANA-H2B inh	Ecoli growth	Bfl-1 A1 inh	B2AR ag	UCH37 DUB inh	Vif A3G
COc1ccccc1C(=O)NC(=O)CSc1nnc(SC)s1	-5.0	-3.3	0.625	0.0	1.4	5.2	6.1%
COc1cccc(CN2CCN(Cc3cc(OC)c(OC)c(OC)c3)CC2)c1OC	0.9	1.5	0.714	-0.1	3.5	4.2	·
O=C1CC(/C=C/c2ccncc2)=Nc2ccccc2N1	3.7	7.9	0.659	-2.0	-20.1	9.6	3.9%
COC(=O)c1ccc2c(c1)N(Cc1ccccc1F)C(=O)c1ccccc1S2=O (stereo unspecified)	4.7	-5.2	0.735	-0.1	6.9	5.8	-5.7%
Cc1ccc(C)n1-c1nnc(N2CCC(C(=O)NCCCN3CC(C)CC(C)C3)CC2)s1 (stereo unspecified)	0.7	3.8	0.664	-0.3	2.1	3.4	·
COc1cnc(SCC(=O)O)[nH]c1=O	2.8	1.4	0.7	1.3	-0.5	3.7	-1.8%
CN(c1ccccc1)S(=O)(=O)c1cccc(NC(=O)CSc2nnc(N)s2)c1	1.1	2.1	0.714	-0.8	-1.8	2.4	·
CNC(=S)NN=C(C)CCCC(C)=NNC(=S)NC	-2.5	·	·	·	-5.0	·	9.2%
Cc1ccc2cc3cc(C(=O)NCCCN4CC(C)CC(C)C4)oc3nc2c1 (stereo unspecified)	7.0	-2.5	0.689	-0.7	12.4	-492.6	-6.2%
O=C(CS(=O)(=O)Cc1ccccc1)N1CCc2ccccc21	-0.9	4.7	0.662	-0.1	-2.0	4.9	2.4%
CN1CCC(=C(c2ccccc2)c2ccc(Br)cc2)CC1	2.3	-7.1	0.587	0.8	3.3	5.2	·
